BJeLR viability: BJeLR cell viability loss; BJeLR (HRASV12) viability, CellTiter-Glo ATP luminescence, 48 h; reference of the scale not given here; inhibition, % (concentration not given with the values); hit rate 0.17% among 300,000; AID 1554;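 active = replicate mean above 50%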;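 note: 50 nL library stock added to about 25 µL; numbers are from one replicate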
Mtb hypoxia rep: reduces hypoxia-regulated biosensor signal in M. tuberculosis. hit rate 0.1% among 300,000. fluorescence inhibition, % (concentration not given with the values). AID 1159583. M. tuberculosis hypoxia-regulated fluorescent reporter, fluorescence;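 active = 35 to 45% if threefold the growth effect, above 45% if 1.5-fold the growth effect; inactive = the rest, general growth blockers included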;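 note: wells of about 50 µL received 100 nL stock; 0% = vehicle wells and 100% = reference inhibitor wells; whole bacteria with a GFP reporter of the hypoxia response; strong numbers were not always called active; many hits fall short of the cut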
RN4220 kill: S. aureus RN4220 growth inhibition; OD600, 16 h; inhibition, % (concentration not given with the values); hit rate 0.33% among 330,000; AID 1259311;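 active = z-score of -3 or lower and OD600 up to 0.18 on both plates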;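 note: plate controls were untreated cells for no effect and reference antibiotic for full effect; stock transfer was 100 nL into about 80 µL; one replicate is shown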
Sa ugtP lethal: compounds lethal to S. aureus RN4220 ugtP deletion mutant; AID 1259309; OD600 growth, 16 h; some inactives read as strong as hits; growth inhibition, % (no concentration beside the values); hit rate 0.54% among 330,000;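 active = z-score under -3 and OD600 up to 0.15 on both plates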;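 note: plate controls were untreated wells for no effect and antibiotic for full effect; wells of about 80 µL received 100 nL stock; the first replicate is given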
PrP 5UTR inh: suppresses PrP 5' UTR mRNA reporter expression; cell-based PrP 5' UTR mRNA reporter, plate reader; inhibition, % (concentration not given with the values); hit rate 0.35% among 340,000;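 active = every replicate at 50% or more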;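 note: 0 = median of the neutral control wells; tested in H4 reporter cells; numbers are from one replicate; inactives centre near -14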
Autofluor counter: compound fluorescence in toxin protease inhibitor counterscreen; compound autofluorescence counterscreen, microsphere flow cytometry; hits give high values; fluorescence intensity (test concentration not listed); hit rate 3.1% among 360,000;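 active = at least 3 SD above the mean of all compounds, about 16000 in these data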;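 note: 100 nL of 1 mM stock went into each well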
Mtb hypoxia rep growth: further read-out of Mtb hypoxia rep, marked with its call; growth inhibition, %; measured here: M. tuberculosis growth (absorbance);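 0% = vehicle and 100% = reference antibiotic; read after six days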
Active calls of the source: *; x = no result given. Random draw from the library; any-hit rate near 4.1%.

SMILES	BJeLR viability	Mtb hypoxia rep	Mtb hypoxia rep growth	RN4220 kill	Sa ugtP lethal	PrP 5UTR inh	Autofluor counter
COc1ccc(Br)cc1CN(C)C(=O)c1ccncc1	-5	16	0	4.8	11	-21	6284
Cc1cc(Cl)cc2c(N=Nc3ccccc3C(=O)O)c(O)[nH]c12	2	0	2	-6.8	-2	-10	4097
CN(CC(=O)Nc1ccc(Cl)cc1)Cc1cc(=O)n2ccsc2n1	7	-3	-11	6.6	5	6	2047
CC(=O)Nc1ccc(NC(=O)/C=C/c2ccccc2)cc1	2	-3	2	-1.1	-2	-22	2078
CCc1ccc(OC)c(S(=O)(=O)N2CCN(C(=O)c3ccco3)CC2)c1	2	-3	8	4.1	3	-13	4504
Cc1ccc(NC(=O)c2cc(C)nc3ccccc23)c(C)c1	-23	4	0	4.1	5	-22	4268
O/N=C/c1ccc(OCc2ccccc2)c(Cl)c1	-7	x	x	x	x	-110	2551
CCOc1ccccc1-c1noc(CCC(=O)Nc2cccnc2)n1	-3	7	3	-0.7	3	-10	5555
CCN(CC)S(=O)(=O)c1cccc(NC(=S)NC(=O)/C=C/c2ccc(S(=O)(=O)N3CCOCC3)cc2)c1	0	6	4	6.7	9	-24	2025
CC(C)(C)C(=O)Nc1cc(S(=O)(=O)Nc2ccc(Cl)cc2)ccc1Cl	-11	-4	-4	3.3	-26	-2	2298
CCOC(=O)N1CCC(NC(=O)C(Cc2ccccc2)NC(=O)c2ccco2)CC1 (stereo unspecified)	0	3	3	1.9	1	-10	9350
COc1ccccc1CNC(=O)[C@H](C)NC(=O)C1CCN(C(=O)[C@@H]2CCCN2C(=O)OC(C)(C)C)CC1	-5	x	x	1.8	-9	-14	6068
Cc1cc(C)c(C#N)c(SCC(=O)Nc2ccc(S(=O)(=O)Nc3ncccn3)cc2)n1	3	-7	-13	3.7	-1	-11	5698
O=C1NC(=Nc2ccccc2Cl)S/C1=C\c1cccc([N+](=O)[O-])c1	-3	x	x	x	x	-14	3446
COc1ccc(C(C(=O)NCCC(C)C)N(CCO)C(=O)c2snc(C(N)=O)c2N)cc1OC (stereo unspecified)	3	-2	3	2.8	2	-5	4157
O=P(Cc1nnco1)(c1ccccc1)c1ccccc1	-3	3	11	3.2	7	0	2662
C/C=C\C=C/C(=O)Nc1cccc(C2=NOC3(C2)C[C@@H](C(N)=O)N(C(=O)[C@H]2CCC(=O)N2)C3)c1 (stereo partly specified)	3	x	x	x	x	-1	3126
Cc1ccccc1Oc1ncnc2oc(-c3ccccc3)cc12	4	x	x	-1.2	3	-7	2153
COCCn1c(N)c(N(Cc2ccccc2)C(=O)c2ccc(C#N)cc2)c(=O)[nH]c1=O	-1	4	1	4.8	-3	-23	4385
O=C1/C(=C/c2cccnc2)SC(=S)N1CCc1ccccc1	-3	9	10	0.9	-5	-18	3797
CCOCCCNC(=O)c1c(C)c(C(=O)OCC)n(C)c1C	2	8	9	3.0	-3	-17	18479*
CCCCCCn1c(=O)c(C(=O)Nc2ncccc2C)c(O)c2ccccc21	-10	x	x	66	89*	13	x
Cc1ccc(N2C(=O)CC(Nc3ccc(Cl)c(S(=O)(=O)N(C)C)c3)C2=O)c(C)c1 (stereo unspecified)	-4	9	3	2.8	3	-7	4111
CC1CCN(CC2C(=O)O[C@@H]3C[C@@]4(C)CCC[C@H](C)C4=C[C@H]23)CC(C)(C)C1 (stereo partly specified)	8	4	-4	1.8	6	-11	3899
COC(=O)C1=C(C)NC(=O)/C1=C\c1cc(C)n(-c2ccccc2)c1C	-3	10	0	7.0	5	-32	1982

Quoted from the results shown (6 entries):
SMILES	BJeLR viability	Mtb hypoxia rep	Mtb hypoxia rep growth	RN4220 kill	Sa ugtP lethal	PrP 5UTR inh	Autofluor counter
CN(CC(=O)Nc1ccc(Cl)cc1)Cc1cc(=O)n2ccsc2n1	7	-3	-11	6.6	5	6	2047
CC(=O)Nc1ccc(NC(=O)/C=C/c2ccccc2)cc1	2	-3	2	-1.1	-2	-22	2078
CCc1ccc(OC)c(S(=O)(=O)N2CCN(C(=O)c3ccco3)CC2)c1	2	-3	8	4.1	3	-13	4504
Cc1ccc(NC(=O)c2cc(C)nc3ccccc23)c(C)c1	-23	4	0	4.1	5	-22	4268
O/N=C/c1ccc(OCc2ccccc2)c(Cl)c1	-7	x	x	x	x	-110	2551
CCOc1ccccc1-c1noc(CCC(=O)Nc2cccnc2)n1	-3	7	3	-0.7	3	-10	5555

Following part:
SMILES	BJeLR viability	Mtb hypoxia rep	Mtb hypoxia rep growth	RN4220 kill	Sa ugtP lethal	PrP 5UTR inh	Autofluor counter
CCc1ccc(NS(=O)(=O)c2ccc3[nH]cc(C(=O)NCC4CCCO4)c(=O)c3c2)cc1 (stereo unspecified)	-1	5	13	2.7	6	-33	4729
COc1cc(/C=C(/C#N)c2nc3ccccc3[nH]2)ccc1OCC(=O)Nc1ccccc1C(C)C	44	-1	1	2.2	-8	0	11103
CCC(C)NC(=O)CCc1nnc2ccc(N3CCC(C)CC3)nn12 (stereo unspecified)	15	8	3	-2.9	6	-18	2932
COC(=O)C1=C(c2ccc(OC(F)(F)F)cc2)CC2CCC1N2C(=O)NCCCOC(C)C (stereo unspecified)	x	9	14	1.7	1	x	x
O=C(O)CC(NC(=O)C1c2ccccc2Oc2ccccc21)c1ccc(OC2CCCC2)cc1 (stereo unspecified)	7	2	2	-4.5	27	-1	3692
O=C(Nc1cccc(Cl)c1Cl)C1CCCO1 (stereo unspecified)	3	x	x	x	x	-13	3765
CCOC(=O)c1sc(NC(=O)CNCc2cccnc2)c(C(=O)OCC)c1C	6	0	13	7.1	2	1	2632
CN1C(=O)/C(=C\c2ccc(-c3ccccc3)o2)SC1=S	-8	8	4	8.9	-5	-38	2769
Cc1nc2c3ccccc3nc(SCC(=O)c3ccc(Cl)cc3)n2n1	-1	9	5	7.0	-13	-20	7067
O=C(O)/C=C\C(=O)NC1CCCCC1	-9	-4	4	4.5	5	-16	2171
COc1ccc(C2CC(=O)n3nc(C45CC6CC(CC(C6)C4)C5)nc3S2)cc1OC (stereo unspecified)	-16	4	5	1.8	1	-28	2607
CCC(=O)c1ccc(OCC(O)Cn2c(C)nc3ccccc32)cc1 (stereo unspecified)	x	x	x	-2.3	2	-11	4099
O=C(NN=Cc1cccc([N+](=O)[O-])c1)c1nc2ccccc2c(=O)[nH]1	x	-19	-8	1.0	3	x	x
O=C(Nc1ccc(C(=O)c2ccc(C(=O)O)c(C(=O)O)c2)cc1)c1ccccc1	9	6	-8	2.1	10	-26	3842
O=C(Nc1cccc2ccccc12)c1ccc(Cn2cc(Cl)cn2)cc1	5	x	x	-7.9	-4	-7	2099
Cc1ccc(S(=O)(=O)N2CCCC(C(=O)NCCc3ccc4c(c3)OCO4)C2)cc1 (stereo unspecified)	-2	8	-1	-3.4	11	-7	2639
CCc1cc2cc(C)ccc2nc1SCC(=O)NC1CCCC1	-7	-7	8	-0.7	78	-6	5385
COc1ccc(Cl)cc1S(=O)(=O)N1CCC(C(=O)NCc2ccccn2)CC1	-13	-1	-1	-0.6	5	-12	5182
CCN(CC(=O)NC1CCS(=O)(=O)C1)C(=O)COc1ccccc1-c1ccccc1 (stereo unspecified)	3	x	x	0.2	5	-27	4235
Cc1c(C(=O)N2CCN(c3ncccn3)CC2)oc2ccc(F)cc12	x	7	2	1.8	-4	-21	4319
Cc1ccc(/C=N/NC(=O)C[n+]2ccccc2)o1	7	x	x	x	x	-6	4433
COc1ccc(C2C(C#N)=C(N)N(N(C)C)C3=C2C(=O)CC(C)(C)C3)cc1 (stereo unspecified)	-9	-3	3	6.5	5	-9	2664
C=C(C)CNC(=S)N/N=C/c1ccco1	-2	x	x	x	x	-4	3300
CN(C)/C=C1/C=C(C=O)OC1=O	-3	-2	-4	4.1	4	-16	6230
c1coc(Cn2c(-c3ccco3)nc3ccccc32)c1	7	13	5	5.0	4	-6	2517
The results go on:
SMILES	BJeLR viability	Mtb hypoxia rep	Mtb hypoxia rep growth	RN4220 kill	Sa ugtP lethal	PrP 5UTR inh	Autofluor counter
C=CCn1c(SCc2ccccc2Cl)nnc1-c1sc2nc(C)cc(C)c2c1N	-22	-3	-13	5.3	6	-13	4268
C[C@H](NC(=O)C1CCN(S(=O)(=O)c2ccccc2)CC1)C(=O)NCc1ccccn1	2	-4	3	1.0	2	-8	5496
O=C1CC(N(C(=O)c2ccco2)c2ccc(F)cc2)C(=O)N1c1ccc(F)cc1 (stereo unspecified)	0	4	9	0.0	-3	-10	19184*
Cc1c(CNC(=O)C2CC2)c(-n2cccc2)n(Cc2ccccc2)c1C	0	1	3	7.6	10	-24	4074
OCCCNc1cc(-c2ccccc2)nc2cc(-c3ccc(F)cc3)nn12	-11	3	7	-5.0	18	-16	4508
COc1ccc(C(=O)CSc2nnnn2Cc2ccccc2)cc1	-6	x	x	3.1	-3	-11	3524
Nc1c(SCCC(=O)O)ccc2c1C(=O)c1ccccc1C2=O	5	11	10	34	12	-3	3566
Cc1c(NN=C(C#N)C#N)c(=O)n(-c2ccccc2)n1C	-5	13	8	7.6	4	-25	4175
O=C(c1ccoc1)N1CCC2(CC1)Oc1ccc(Cl)cc1C(=O)C21CC(c2cccnc2)=NO1 (stereo unspecified)	4	-4	1	6.1	0	-19	4613
C/C(=N\NC(=O)c1cc([N+](=O)[O-])cc([N+](=O)[O-])c1)c1ccco1	-2	x	x	x	x	-6	5907
CC(=O)C(C)Oc1ncn(-c2ccccc2)n1 (stereo unspecified)	2	-16	4	4.6	-4	-19	2494
c1cc(-c2cn(CC3CCC(C4CCC(Cn5cc(-c6ccsc6)nn5)O4)O3)nn2)cs1 (stereo unspecified)	x	2	-1	0.5	1	x	x
COc1ccc(C2Nc3ccccc3C(=O)N2NS(=O)(=O)c2ccccc2)cc1 (stereo unspecified)	0	11	1	8.6	-2	-5	2098
Cc1ccccc1C(=O)NC1CC2CCCC(C1)N2Cc1ccccc1 (stereo unspecified)	-9	-5	-2	-4.9	-19	-19	3446
Cc1nc2ccc(-c3nc4ccc(N)cc4[nH]3)cc2[nH]1	3	6	3	4.3	0	1	3609
CC(=O)N/C(=C\c1ccccc1)C(=O)OCC(=O)N(C)C1CCS(=O)(=O)C1 (stereo unspecified)	x	2	1	4.9	8	-17	6350
CC/C=C/CC(=O)N[C@@H](c1ccccc1)[C@@H](O)C(=O)O[C@H]1C[C@@]2(O)[C@@H](OC(=O)c3ccccc3)C3[C@](C)(C(=O)[C@H](OC(C)=O)C(=C1C)C2(C)C)[C@@H](O)C[C@H]1OC[C@@]31OC(C)=O (stereo partly specified)	30	x	x	1.3	-2	59*	4790
O=c1cc(-c2ccc(O)cc2)oc2c([C@@H]3O[C@H](CO)[C@@H](O)[C@H](O)[C@H]3O)c(O)c([C@@H]3O[C@H](CO)[C@@H](O)[C@H](O)[C@H]3O)c(O)c12	3	x	x	x	x	-10	3996
CCC(C)N(C)Cc1cccc(C2(O)CCN(S(=O)(=O)c3ccc(F)cc3)CC2)c1 (stereo unspecified)	11	3	0	1.2	6	-9	10107
C[C@]12c3[nH]c4ccc(Cl)cc4c3CCN1C(=O)[C@@H](CC(=O)NCC13CC4CC(CC(C4)C1)C3)C[C@@H]2C(=O)N1CCOCC1	x	2	7	-16	-8	-24	3059
CC1CN(Cc2ccccc2)C(=O)NC1=O (stereo unspecified)	x	12	10	3.2	8	-18	3117
Cc1cc(C)c(S(=O)(=O)n2nc(C)c(Br)c2C)c(C)c1	1	16	2	2.5	32	-4	7477
CCOC(=O)Cn1c2c(c(-c3ccccc3OC)cc1=O)CCCC2	4	6	7	1.7	69	-2	23496*
O=C(COC(=O)c1ccc(O)cc1O)c1ccc2c(c1)OCO2	-5	-4	-2	2.9	-8	-57	5043
COC(=O)Cn1nc(C)c2ccccc2c1=O	-3	x	x	0.7	1	-5	4679
CCOC(=O)C1CCN(C(=O)CN(c2ccc(OC)cc2)S(=O)(=O)c2c(C)noc2C)CC1	4	x	x	7.4	10	-8	6213
COc1ccc(NCC(=O)n2c(C)c(C)c3ccccc32)cc1OC	-16	5	-1	4.2	3	-26	x
Cc1ccc(S(=O)(=O)N(c2ccc(Br)cc2)C2C=CS(=O)(=O)C2)cc1 (stereo unspecified)	x	18	10	2.8	-6	-35	5089
CN1CCN(C(=O)CN(c2cccc(Br)c2)S(=O)(=O)c2ccccc2)CC1	-7	8	8	6.1	1	-15	4069
CN1CCC(=O)N(C(CC#N)c2ccccc2)CC1 (stereo unspecified)	x	8	5	6.3	-2	x	x

Bioassay records: PubChem, several laboratories
